Assay outcomes from PubChem BioAssay.
2A StopGo: FMDV 2A StopGo reporter, luciferase signal | 410,000 compounds, 1.2% hits | Potency, µM (top dose mostly 57.9 µM), for inactives: at the highest dose signal change, negative = less light | human cells with a luciferase reporter of 2A StopGo recoding; control for the full effect not named in the record; active = well fitted falling curve with a large enough effect; inconclusive = small, poorly fitted or top-dose-only effect; inactive = no such curve, though single readings can be large or run the other way; tested in HEK293T cells; further: on the % scale 0 is the no-effect control and ±100 the full control effect; nearly all actives have a fitted effect of over 45% in size; luciferase light after 4 h
RE007 growth inh: less growth of the S. pombe RE007 Vpr strain | S. pombe RE007 Vpr strain, BacTiter-Glo ATP luminescence, 24 h; control for the full effect not named in the record | Potency, µM (titrated, usually from 92.2 µM), for the others: at the top dose activity change, negative = less growth | 360,000 compounds, 0.21% hits; active = well fitted falling curve with a large enough effect; inconclusive = small, poorly fitted or top-dose-only effect; inactive = no such curve, though single readings can be large or run the other way;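 further: on the % scale 0 is the no-effect control and ±100 the full control effect; nearly all actives have a fitted effect of over 50% in size; the assay follows cell death caused by Vpr and the record does not say whether a fall means rescue or toxicity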
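Fission yeast strain RE007, carrying one chromosomally integrated HIV-1 vpr copy, was seeded at OD 0.01 in PMG+AL medium with 23 nL pinned compound. After 24 h at 30 °C and 99% humidity, viability was read by BacTiter-Glo luminescence.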
Cruzain inh noDet: cruzain (T. cruzi) inhibition without detergent | P25779 | purified cruzain, Z-FR-AMC fluorescence, no detergent | Potency, µM, without a hit: max response, negative = inhibition, hits mostly inhibitors | 200,000 compounds, 2.3% hits; active means well fitted curve in the direction sought with a large enough effect; inconclusive means small, poorly fitted or top-dose-only effect, or another doubt; inactive means no such curve, though single readings can be large; an effect the other way counts as inactive or inconclusive;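 further: plate controls were enzyme without inhibitor for no effect and buffer without enzyme for full effect; nearly all actives have a fitted effect of over 40% in size; top concentration of the series not given in the record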
Target sequence (P25779 123-467 limits assumed): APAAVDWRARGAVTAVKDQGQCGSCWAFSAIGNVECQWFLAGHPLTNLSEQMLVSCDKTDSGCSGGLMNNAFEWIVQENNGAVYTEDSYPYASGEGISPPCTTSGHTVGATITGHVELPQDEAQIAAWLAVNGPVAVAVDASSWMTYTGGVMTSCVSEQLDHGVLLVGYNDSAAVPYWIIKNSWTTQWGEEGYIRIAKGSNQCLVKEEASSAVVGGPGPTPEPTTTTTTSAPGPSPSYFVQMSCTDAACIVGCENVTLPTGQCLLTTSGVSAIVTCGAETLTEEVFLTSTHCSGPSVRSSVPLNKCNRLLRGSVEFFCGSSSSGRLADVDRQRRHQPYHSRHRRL
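Purified cruzain at 1.5 nM, pre-incubated 15 min with compound at room temperature in 100 mM sodium acetate pH 5.5, 5 mM DTT, 0.00005% Triton X-100. Reaction started with 2 uM Z-FR-AMC; AMC fluorescence increase over 60 s gives rate.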
Lassa entry inh: Lassa virus entry inhibition. Lassa virus pseudotype entry inhibition, cell reporter; control for the full effect not named in the record. Potency, µM (titrated, usually from 37.9 µM), without a hit: at the highest dose activity change, negative = inhibition, hits mostly inhibitors. 300,000 compounds, 1.2% hits. AID 540256; active means well fitted inhibition curve with a large enough effect; inconclusive means small, poorly fitted or top-dose-only effect, or effect the other way; inactive means flat fitted curve, though single readings scatter; tested in HEK293 cells; further: on the % scale 0 is the no-effect control and ±100 the full control effect; nearly all actives have a fitted effect of over 50% in size; luciferase read-out
Marburg entry inh: blocks Marburg virus binding to or entry into cells; 300,000 compounds, 1.8% hits; Potency, µM (top dose mostly 37.8 µM), without a hit: at the highest dose activity change, negative = inhibition, actives largely listed as inhibitors; Marburg virus pseudotyped entry inhibition, cell reporter; control for the full effect not named in the record; about a third of the inactives were read at about 46 µM; AID 540276; active = well fitted inhibition curve with a large enough effect; inconclusive = small, poorly fitted or top-dose-only effect, or effect the other way; inactive = flat fitted curve, though single readings scatter; tested in HEK293 cells; about a fifth of its hits are not listed in these tables; further: on the % scale 0 is the no-effect control and ±100 the full control effect; luciferase read-out
NS1 function inh: blocks influenza NS1 protein function; S. cerevisiae slowed by influenza A NS1, growth recovery by OD600; Potency, µM (series often up to 46.1 µM), for inactives: at the highest dose activity, positive = more growth; 270,000 compounds, 0.4% hits; AID 2326; further: actives are rising curves; nearly all actives have a fitted effect of over 50% in size
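Read-out: OD600 growth recovery of NS1-expressing budding yeast. Cells grown overnight at 30C in -URA glucose medium, washed, resuspended and diluted 1:100 in 2% galactose assay medium, pH 6.0. Same strain lacking NS1 served as positive control.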
SARS PLP yeast: blocks SARS-CoV papain-like protease in a yeast assay; S. cerevisiae expressing SARS-CoV PLpro, growth rescue; control for the full effect not named in the record; Potency, µM (titrated, usually from 32.9 µM), inactives show at the top dose activity, positive = growth rescue; 330,000 compounds, 0.19% hits; further: 0% is about no effect; nearly all actives have a fitted effect of over 55% in size; growth read by luminescence after 48 h
Cruzain Triton: inhibitors of Trypanosoma cruzi cruzain with detergent; Potency, µM, inactives show max response, negative = inhibition, actives largely listed as inhibitors; 200,000 compounds, 0.43% hits; AID 1478; purified cruzain, Z-FR-AMC fluorescence, 0.01% Triton; active means well fitted curve in the direction sought with a large enough effect; inconclusive means small, poorly fitted or top-dose-only effect, or another doubt; inactive means no such curve, though single readings can be large; an effect the other way counts as inactive or inconclusive;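 further: plate controls were neutral wells for no effect and buffer without enzyme for full effect; nearly all actives have a fitted effect of over 40% in size; top concentration of the series not given in the record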
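Detergent-containing arm of a paired screen for aggregation-based inhibition: 0.01% Triton X-100 present. Cruzain at 1.5 nM cleaved 2 uM Z-FR-AMC at pH 5.5 with 5 mM DTT; AMC fluorescence gain over 60 s measured activity.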
The depositor's hits bear a star; u = inconclusive; x = not tested or not shown; & = joins results of further samples; [ ] = remark or other dose. Unless noted, the call rests on the fitted dose curve; in most records, active means well fitted rising curve with a large enough effect; inconclusive means small, poorly fitted or top-dose-only effect; inactive means no such curve, though single readings can be large or run the other way. Potency means the concentration at half of the fitted maximal effect. An unsorted share of the library, and some 4.7% of all compounds hit somewhere here.

Each structure is followed by: 2A StopGo	RE007 growth inh	Cruzain inh noDet	Lassa entry inh	Marburg entry inh	NS1 function inh	SARS PLP yeast	Cruzain Triton
1. C/C=C/C(=O)Nc1nnc(-c2ccccc2C)s1
  35%[activator]	0%	x	x	x	-1%	0%	x
2. CCC(CO)NCc1ccc2c(c1)n(C)c(=O)n2C (stereo not given)
  25%	-10%	-10%	4%	-8%	4%	0%	5.5%
3. CC1CCN(S(=O)(=O)N2CCC(C(=O)NCc3cccs3)CC2)CC1
  -21%	-10%	-2%	-16%	3%	u	9%	5.4%
4. Cn1c(=O)c2c(nc(SCCN3CCCCC3)n2C)n(C)c1=O
  -18%	-2%	-7%	12%	7%	3%	-1%	-0.8%
5. C[N+]1(C)CC2([N+](=O)[O-])CC=C(Oc3ccccc3)C([N+](=O)[O-])(C2)C1 (stereo not given)
  9%	-3%	2%	u	16%	-8%	-14%	1.0%
6. CCS(=O)(=O)c1nc(S(=O)(=O)c2ccc(C)cc2)c(N2CCN(CCO)CC2)s1
  -6%	-2%	x	x	x	2%	2%	x
7. O=S(=O)(Nc1ccccc1O)c1ccc(-c2ccccc2)cc1
  2%	14%	x	-14%	-13%	2%	-2%	x
8. CC1CCCC(NC(=O)C2c3ccccc3C(=O)N2Cc2cccs2)C1C (stereo not given)
  31%[activator]	2%	-2%	u	-11%	-10%	-10%	-0.4%
9. O=C(Nc1nncs1)C1CC(=O)N(CCc2ccc(F)cc2)C1 (stereo not given)
  2%	6%	x	-3%[46.1 µM]	0%[46.1 µM]	2%	2%	x
10. Cc1ccc(-c2c3c(=O)n(C)c(=O)n(C)c3cn2N2CCOCC2)cc1
  -29%	28%	-2%	-9%	-14%	-14%	7%	-6.4%

Another view of some results above.
(1) C/C=C/C(=O)Nc1nnc(-c2ccccc2C)s1
(2) CCC(CO)NCc1ccc2c(c1)n(C)c(=O)n2C (stereo not given)
(3) CC1CCN(S(=O)(=O)N2CCC(C(=O)NCc3cccs3)CC2)CC1
(4) Cn1c(=O)c2c(nc(SCCN3CCCCC3)n2C)n(C)c1=O
(5) C[N+]1(C)CC2([N+](=O)[O-])CC=C(Oc3ccccc3)C([N+](=O)[O-])(C2)C1 (stereo not given)
(6) CCS(=O)(=O)c1nc(S(=O)(=O)c2ccc(C)cc2)c(N2CCN(CCO)CC2)s1
(7) O=S(=O)(Nc1ccccc1O)c1ccc(-c2ccccc2)cc1
(8) CC1CCCC(NC(=O)C2c3ccccc3C(=O)N2Cc2cccs2)C1C (stereo not given)
(9) O=C(Nc1nncs1)C1CC(=O)N(CCc2ccc(F)cc2)C1 (stereo not given)
(10) Cc1ccc(-c2c3c(=O)n(C)c(=O)n(C)c3cn2N2CCOCC2)cc1

| compound no. | 1 | 2 | 3 | 4 | 5 | 6 | 7 | 8 | 9 | 10 |
| --- | --- | --- | --- | --- | --- | --- | --- | --- | --- | --- |
| 2A StopGo | 35%[activator] | 25% | -21% | -18% | 9% | -6% | 2% | 31%[activator] | 2% | -29% |
| RE007 growth inh | 0% | -10% | -10% | -2% | -3% | -2% | 14% | 2% | 6% | 28% |
| Cruzain inh noDet | x | -10% | -2% | -7% | 2% | x | x | -2% | x | -2% |
| Lassa entry inh | x | 4% | -16% | 12% | u | x | -14% | u | -3%[46.1 µM] | -9% |
| Marburg entry inh | x | -8% | 3% | 7% | 16% | x | -13% | -11% | 0%[46.1 µM] | -14% |
| NS1 function inh | -1% | 4% | u | 3% | -8% | 2% | 2% | -10% | 2% | -14% |
| SARS PLP yeast | 0% | 0% | 9% | -1% | -14% | 2% | -2% | -10% | 2% | 7% |
| Cruzain Triton | x | 5.5% | 5.4% | -0.8% | 1.0% | x | x | -0.4% | x | -6.4% |

(listing goes on)
Each structure is followed by: 2A StopGo	RE007 growth inh	Cruzain inh noDet	Lassa entry inh	Marburg entry inh	NS1 function inh	SARS PLP yeast	Cruzain Triton
11. CCCCOC(=O)/C=C/c1ccc(OC(=O)OC)c(OC(=O)OC)c1
  -2%	u	-1%	u	11µM*	14%	30%	-2.8%
12. CC(Oc1cccc(Cl)c1)C(=O)Nc1cc(Cl)ccc1N1CCOCC1 (stereo not given)
  u	4%	x	-24%	u	x	0%	x
13. CCC1(c2ccc(F)cc2)NC(=O)N(CC(=O)Nc2ccccc2C)C1=O (stereo not given)
  1%	10%	x	u	-9%[46.1 µM]	2%	1%	x
14. COc1ccc(-c2ccc3nnc(SCC(=O)Nc4ccc(NC(C)=O)cc4)n3n2)cc1
  14%	-3%	x	-7%	-13%	x	x	x
15. Cc1ccc(OCCCC(=O)Nc2ccc(S(=O)(=O)Nc3cc(C)nc(C)n3)cc2)cc1
  56%[activator]	-13%	x	x	x	8%	5%	x
16. Cc1ccc(OCC(=O)Nc2ccc(S(=O)(=O)Nc3onc(C)c3C)cc2)cc1
  3%	-7%	11%	u	3%	-56%	1%	0.4%
17. CCOc1ccc(S(=O)(=O)N2CCOCC2)cc1NC(=O)CSCC(=O)Nc1ccc(C)cc1
  14%	10%	x	-1%	3%	-2%	0%	x
18. CCn1c(SCC(=O)Nc2cc3oc4ccccc4c3cc2OC)nnc1-c1cccs1
  x	1%	u	u	u	-80%	-5%	-2.4%
19. O=C(Nc1cccc2ccccc12)c1cccc([N+](=O)[O-])c1
  -16%	-12%	x	x	x	-4%	0%	x
20. O=C(Cc1ccc(Cl)c(Cl)c1)Nc1ccc(SC(F)F)cc1
  1%	-17%	-16%	u	u	-25%	1%	-5.0%
21. C/C(=N\NS(=O)(=O)c1ccc(C)c([N+](=O)[O-])c1)c1cc2ccccc2o1
  31%[activator]	8%[3.69 µM]	-17%	9%	-2%	-2%	-1%	-16%
22. COc1ccc(Cc2nc3ccc(C(=O)N(C)CCn4ccnc4)cc3o2)cc1OC
  3%	-21%	x	x	x	15%	12%	x
23. O=C(Cn1cccc1C(=O)c1ccccc1)NCCC1=CCCCC1
  15%	0%	x	-2%	-23%[14.2 µM]	x	0%	x
24. OCCN1CCN(C(=S)Nc2cccc(C(F)(F)F)c2)CC1
  3%&-9%	3%&-19%	x	12%[46.1 µM]	-16%[46.1 µM]	0%	0%	x
25. CN(C)S(=O)(=O)c1cc(NC(=O)COC(=O)Cc2cccc3ccccc23)ccc1Cl
  u	4%	-1%	u	-5%	u	-5%	-8.1%
26. CC1CC(C)CN(CCC(=O)Nc2cccc(Cl)c2)C1 (stereo not given)
  -12%	4%	-6%	-28%	u	7%	2%	3.0%
27. COc1cccc(N2CCN(C(=O)c3cnn(C(C)(C)C)c3C3CCN(C(=O)OC(C)(C)C)CC3)CC2)c1
  -17%	x	27%	1%[46.1 µM]	x	x	x	-2.8%
28. COc1ccc(-c2cc(C(F)(F)F)nc(SCC(=O)N3CCCCC3)n2)cc1
  -5%	x	0%	8%[46.1 µM]	14%[46.1 µM]	x	x	-2.4%
29. O=C1OCCC1Sc1nc(-c2ccccc2)cs1 (stereo not given)
  -14%	2%	-30%	12%	-26%	3%	-3%	0.6%
30. N#Cc1c(Nc2ccccc2)sc(C(=O)c2ccc(F)cc2)c1N
  -15%	6%	29%	u	-28%	19%	-12%	-8.9%
31. O=S(=O)(c1ccc(OCC(O)CN2CCCCC2)cc1)N1CCOCC1 (stereo not given)
  -16%	5%	9%	1%	u	-4%	-1%	5.6%
32. COc1ccc(OC)c(CNC(=O)C2COc3ccccc3C2)c1 (stereo not given)
  20%	x	-6%	5%[46.1 µM]	x	x	x	-3.3%
33. CC(C)Nc1nc(SC(C)C(=O)Nc2ccccc2)nc(N(C)C)n1 (stereo not given)
  -20%	1%	x	x	-23%[46.1 µM]	x	-2%	x
34. COc1ccc(N2CCN(S(=O)(=O)CCNC(=O)/C=C/c3ccccc3)CC2)cc1
  -10%	1%	x	-3%	-6%	x	-1%	x
35. O=C(Cc1cccc2ccccc12)Nc1cc(C(=O)O)cc(C(=O)O)c1
  7%	3%	x	x	x	25%	3%	x
36. O=C(CC(c1ccccc1)c1cc(Cl)ccc1O)NCCCN1CCOCC1 (stereo not given)
  -13%	-17%	x	-10%	1%	2%	0%	x
37. C=C(C)[C@H]1CC=C(C)/C(=N/NC(=O)CNc2ccccc2OC)C1
  0%	-21%	-5%	25%	6%	-2%	10%	-0.3%
38. CCn1ccc2cc(S(=O)(=O)N3CCCN(C(=O)Nc4ccccc4F)CC3)ccc21
  -10%	x	9%	-18%[46.1 µM]	x	x	x	-2.1%
39. O=C(Nc1ccc(S(=O)(=O)Nc2ccccc2)cc1)c1ccc(CN2CCOCC2)cc1
  u	11%	x	x	x	-4%	-2%	x
40. COc1ccc(N2Cc3cccc(C(=O)Nc4ccc(C)c(C)c4)c3C2=O)cc1
  11%	x	-3%	19%[46.1 µM]	u	x	x	0.6%
41. O=C(c1ccco1)N1CCN(c2ncnc3scc(-c4ccccc4)c23)CC1
  u	-13%	-2%	-20%	-11%[46.1 µM]	-132%	-7%	-4.1%
42. O=C(CSCc1ccc(F)cc1)NCc1ccco1
  4%	1%	15%	u	-1%	1%	-2%	0.9%
43. CC1CCC(NC(=O)CCS(=O)(=O)c2ccc3c(c2)NC(=O)C(C)S3)CC1 (stereo not given)
  0%	-2%	x	x	x	5%	11%	x
44. CCC(C(=O)NCCC(C)C)N(Cc1ccccc1Cl)C(=O)c1snc(C(N)=O)c1N (stereo not given)
  -10%	3%	x	-28%	-18%	-17%	6%	x
45. C/C(=N/NC(=O)c1ccc(C)s1)c1cccc(NC(=O)c2ccoc2C)c1
  -17%	-3%	x	x	x	3%	-8%	x
46. CCCNC(=O)CCn1cc(-c2ccc(OC)cc2)nc1-c1ccncc1
  0%	-16%	x	x	x	-1%	0%	x
47. CN1CCC2(CC1)C(C#N)=C(N)NC(S)=C2C#N
  -4%&-12%	3%&7%	5%	x	x	13%	2%&-7%	-12%
48. Cc1cccc(C)c1NC(=O)CNc1ccccc1
  9%	-4%	u	6%	-8%	0%	1%	1.8%
